rRNA inh HTS – reduced GFP signal of wild-type E. coli, primary screen, bacterial rRNA inhibitor project, GFP/RFP fluorescence, OD600, single point | AID 720706, 2013 | GFP signal change (wild-type ribosome), % (test concentration not listed) | actives 1.6% (n = 350,000) | E. coli WT GFP vs humanized-ribosome RFP mutants, 24 h; hits give low values; DMSO median 0, no signal -100;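 active = significant combined selectivity score with lowered wild-type GFP, culture density cut under 30%, mutant RFP and density less affected; inactive = any of these conditions unmet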; also: one replicate is shown; some compounds called inactive have numbers as strong as hits
Calb FLC – C. albicans growth inhibition with fluconazole, primary screen, CaCi-2 strain, Alamar Blue fluorescence; growth inhibition, % (concentration not given with the values); C. albicans CaCi-2 (fluconazole-resistant clinical isolate) + fluconazole, 48 h; actives 0.57% (n = 300,000);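 active = most replicates above 75%; inconclusive = exactly half above 75%; inactive = most below 75%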;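 also: all wells also contain fluconazole at 8 µg/ml as a sub-toxic cotreatment; 0% = median of DMSO wells and 100% = median of geldanamycin control wells; wells of about 8 µL received 7.5 nL stock; the first replicate is given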
T cruzi inh – inhibitors of intracellular T. cruzi growth, primary screen, luminescence, NIH3T3 host cells | T. cruzi beta-gal in NIH3T3, 90 h | inhibition, % (concentration not given with the values) | actives 1.4% (n = 300,000) | AID 1885, 2009;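 active = mean inhibition across valid replicates above about 55%, limit read from the data; inconclusive = mean below that limit but half or more replicates reach it; inactive = mean below it, under half of replicates reach it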;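 also: signal also drops with host cell toxicity which is not excluded here; 0% = plate median of DMSO wells and 100% = zero luminescence signal; higher percent means less beta-gal luminescence so fewer parasites; stock transfer was 50 nL into about 50 µL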
A1 inh – caspase 3/7 activation in MEF A1-2A-BIM cells, primary screen, A1 inhibitor project, cell-based, luminescence, HTS | Caspase-Glo 3/7 luminescence, 3 h; percent of clofoctol response, vehicle zero | caspase activation, % (test concentration not listed) | actives 0.066% (n = 330,000) | AID 2462, 2010;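 active = over half of replicate activation scores above 10%, or exactly half above 10 with the replicate mean above 10; inconclusive = replicate mean below 10 yet half the replicates above 10; inactive = over half of replicates below 10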;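 also: wells of about 30 µL received 50 nL stock; many hits fall short of the cut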
LANA-H2B inh – blockers of LANA interaction with H2A/H2B – biochemical, FP readout, HTS, primary screen; Protein LANA1 (Human herpesvirus 8 type P (isolate GK18)), Q9QR71; inhibition, % (no concentration beside the values); AID 2629, 2010; cell-free LANA-H2A/H2B peptide, fluorescence polarization; actives 0.6% (n = 320,000); in the data active = inhibition mostly above about 10%, no sharp cut-off; inactive = mostly below about 6.7%;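 also: stock transfer was 7.5 nL into about 10 µL; 0% = median of vehicle wells and 100% = median of positive control wells; one replicate is shown; the record names a cut of 25% in any replicate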
Target sequence (Q9QR71 whole entry, looked up): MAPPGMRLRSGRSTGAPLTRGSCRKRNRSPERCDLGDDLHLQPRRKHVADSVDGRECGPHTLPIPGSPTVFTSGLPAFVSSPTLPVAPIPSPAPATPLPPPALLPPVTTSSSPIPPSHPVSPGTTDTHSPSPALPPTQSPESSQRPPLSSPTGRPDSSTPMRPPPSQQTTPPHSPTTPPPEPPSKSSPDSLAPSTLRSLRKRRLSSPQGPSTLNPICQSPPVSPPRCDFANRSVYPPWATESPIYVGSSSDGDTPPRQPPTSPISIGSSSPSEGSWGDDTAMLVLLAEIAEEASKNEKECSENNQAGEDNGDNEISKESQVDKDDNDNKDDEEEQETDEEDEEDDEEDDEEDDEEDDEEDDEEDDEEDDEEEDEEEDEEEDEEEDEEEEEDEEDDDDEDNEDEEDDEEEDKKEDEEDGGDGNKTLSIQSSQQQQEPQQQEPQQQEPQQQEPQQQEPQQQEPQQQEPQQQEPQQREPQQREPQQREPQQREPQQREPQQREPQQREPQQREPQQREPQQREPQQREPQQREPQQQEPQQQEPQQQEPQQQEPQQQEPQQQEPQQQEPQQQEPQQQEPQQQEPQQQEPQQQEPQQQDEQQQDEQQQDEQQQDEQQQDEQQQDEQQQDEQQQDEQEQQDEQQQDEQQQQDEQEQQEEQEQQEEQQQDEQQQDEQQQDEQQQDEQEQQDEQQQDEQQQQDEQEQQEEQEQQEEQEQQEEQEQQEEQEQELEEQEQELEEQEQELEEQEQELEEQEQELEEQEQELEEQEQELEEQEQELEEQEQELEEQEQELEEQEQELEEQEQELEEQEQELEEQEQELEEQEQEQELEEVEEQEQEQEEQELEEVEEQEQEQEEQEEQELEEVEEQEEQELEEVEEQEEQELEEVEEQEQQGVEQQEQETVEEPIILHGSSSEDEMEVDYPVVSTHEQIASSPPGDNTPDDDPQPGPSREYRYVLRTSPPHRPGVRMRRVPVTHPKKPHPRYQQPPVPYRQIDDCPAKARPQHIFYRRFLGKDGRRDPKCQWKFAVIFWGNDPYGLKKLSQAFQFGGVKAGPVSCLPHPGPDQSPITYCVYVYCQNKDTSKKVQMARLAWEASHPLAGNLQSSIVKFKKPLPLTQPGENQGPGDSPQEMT
Beta2AR agonist – beta2AR agonists driving receptor internalization, primary screen, cell-based, FAP fluorogen, flow cytometry; Beta-2 adrenergic receptor (Homo sapiens), P07550; Am2.2-beta2AR cells; reference of the scale not given here; response, % (concentration not given with the values); actives 0.43% (n = 340,000); AID 504454, 2011;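 active = response above a set limit, near 3 SD of response in nonfluorescent compounds, cut at about 42% in these data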;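 also: stock transfer was 100 nL into about 11 µL; a reference agonist was the positive control; negative values mostly stem from fluorescent compounds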
Beta apoptosis – inhibitors of cytokine-induced beta cell apoptosis, primary screen, luminescence | INS-1E cytokine-induced death, ATP luminescence, 48 h; percent of positive-control rescue, neutral wells zero | protection from apoptosis, % (test concentration not listed) | actives 0.8% (n = 300,000);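 active = all replicates at 75% or more, or half of them and the mean; inconclusive = half reach 75% but not the mean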;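 also: 0% = cytokine-treated negative control wells and 100% = positive control rescue; higher means more ATP so stronger rescue from cytokine killing; wells of about 40 µL received 100 nL stock; the first replicate is given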
ALR inh – inhibitors of human ALR sulfhydryl oxidase, primary screen, biochemical, H2O2 detection, HRP-luminol luminescence, single point; FAD-linked sulfhydryl oxidase ALR (Homo sapiens), P55789; purified ALR, DTT oxidation; inhibition, % (no concentration beside the values); actives 3.8% (n = 290,000);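 active = mean and each replicate at 75% or more; inconclusive = only one of the two met; inactive = neither met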;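 also: stock transfer was 7.5 nL into about 7.5 µL; 0% = neutral wells and 100% = wells with inactivated enzyme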
rRNA inh HTS OD600 – recorded beside rRNA inh HTS, whose call it bears; OD600 change, %; measured here: OD600 growth;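 optical density of the mix in the first replicate; 0 = DMSO median and -100 = no signal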
rRNA inh HTS RFP – second read-out of rRNA inh HTS, no call of its own (marks repeat the call); RFP signal change, %; measured here: RFP humanized mutant strains;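 first replicate; 0 = DMSO median and -100 = no signal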
Active calls of the source: *; ? = inconclusive; · = no result given.

SMILES	rRNA inh HTS	rRNA inh HTS OD600	rRNA inh HTS RFP	Calb FLC	T cruzi inh	A1 inh	LANA-H2B inh	Beta2AR agonist	Beta apoptosis	ALR inh
O=C(COc1cccc2ccccc12)NNC(=O)CSCCO	-1	14	11	6	10	0.4	0.7	7	0	-44
CSc1sccc1/C=N/NC(=O)c1ccncc1	8	11	2.8	-8	-9	0.4	-0.3	5	3	-2
CCC(C)Sc1ccc([C@H]2N[C@@](Cc3ccccc3)(C(=O)OC)[C@H]3C(=O)N(CC)C(=O)[C@@H]23)cc1 (some centres undefined)	3	-17	-2.9	-4	33	?	1.2	-10	·	-3
COc1ccc2cc(C=NS(=O)(=O)c3ccc(C)cc3)n(C)c2c1	·	·	·	·	·	0.5	-5.5	5	-2	1
COc1ccc(C(=O)NCc2nnc(SCC(=O)Nc3ccc4c(c3)OCO4)o2)cc1	10	7	-1.4	14	7	0.7	0.6	-2	1	-16
O=C1Nc2ccccc2/C1=C/C(=O)c1cccs1	·	·	·	72	-7	-0.1	-3.0	41	-7	8
Cc1ccc(C(=O)/C=C/N(C)C)cn1	3	-11	2.1	-11	-31	2.1	3.2	-3	-5	1
CCc1ccc(Nc2nc(N)nc(CSc3nc4ccccc4s3)n2)cc1	·	·	·	1	4	1.1	0.5	2	5	-11
O=C(COc1ccc2ccc(=O)oc2c1)NC1CCN(Cc2ccccc2)CC1	9	9	2.0	-4	43	-0.9	1.3	-11	6	-2
CCOc1c(Cl)cc(CNCC(O)c2ccccc2)cc1OC (centres undefined)	-1	7	1.2	-1	50	-0.6	2.8	11	-5	-5
CC1(C)NC(=O)N(Cc2cc(=O)n3ccsc3n2)C1=O	12	9	2.3	-16	-15	-0.7	-0.2	-10	-1	-11
O=[N+]([O-])c1ccccc1/C=N/Nc1nccnc1Cl	·	·	·	0	-8	-8.1	2.3	-3	0	8
Cc1ccc(N(CC(=O)NCc2ccccc2)C(=O)CCC(=O)Nc2ccccn2)c(C)c1	-3	0	-0.2	4	2	-0.3	2.0	-2	3	-2
COc1cc(/C=C/C(=O)OCC(=O)Nc2cc(C)c(C)cc2[N+](=O)[O-])ccc1O	5	-7	1.2	3	-1	0.2	-0.3	7	1	3
N#C/C(=C\c1cccnc1)C(=O)Nc1cccc2ccccc12	·	·	·	-4	2	0.2	3.5	16	-11	95*
CCOc1ccccc1NC(=S)N1CCC(NC(=O)NC23CC4CC(CC(C4)C2)C3)CC1	·	·	·	-4	4	-0.7	2.2	-4	7	-2
O=S(=O)(NC1CCCCC1Nc1ccc(Cl)cc1)c1ccccc1 (centres undefined)	-52	-72	-18	3	5	-1.8	2.2	9	-6	?
O=C1C2C3C=CC(CNS(=O)(=O)c4ccccc4[N+](=O)[O-])(O3)C2C(=O)N1c1ccccc1 (centres undefined)	10	3	-3.1	-7	-1	-0.3	3.2	2	3	-11
Cn1cnnc1Sc1nc2c(c(=O)n(C)c(=O)n2C)n1Cc1ccccc1Cl	·	·	·	-1	5	0.8	-14	2	5	4
COc1ccc(-c2csc3ncnc(N4CCN(Cc5ccccc5)CC4)c23)cc1	-12	-13	2.1	-9	17	0.8	4.5	8	7	7
CN(C)c1cc(-c2cccc(C(F)(F)F)c2)oc(=O)c1Cl	7	10	4.1	-3	-6	0.6	-5.6	-12	·	0
N#Cc1nc(COc2cccc(Cl)c2)oc1NCCN1CCOCC1	-10	-9	2.8	-1	14	0.7	-0.5	0	·	-1
Cn1cc(C(=O)NCc2ccc(Cl)cc2)c(=O)c2cc(S(=O)(=O)N3CCOCC3)ccc21	1	7	-4.8	-10	12	0.5	-1.1	-7	2	-3
Cc1cnn(C(=S)NCc2ccco2)c1	·	·	·	-5	-10	0.3	4.4	-2	3	13
CCCCC(NC(=O)CCc1c(C)c2cc3c4c(oc3c(C)c2oc1=O)CCCC4)C(=O)O (centres undefined)	-16	-15	0.1	10	-5	1.4	-0.9	16	-2	96*
Going on with the list.
SMILES	rRNA inh HTS	rRNA inh HTS OD600	rRNA inh HTS RFP	Calb FLC	T cruzi inh	A1 inh	LANA-H2B inh	Beta2AR agonist	Beta apoptosis	ALR inh
CCOC(=O)N1CCN(CC(O)COCc2ccc(OC)c(OC)c2)CC1 (centres undefined)	·	·	·	3	-3	1.6	2.0	-3	-6	-4
O=C(Nc1cccn(Cc2c(Cl)cccc2Cl)c1=O)C1CC1	-17	-14	0.4	-9	-1	-0.1	-6.2	-2	1	-8
CCOC(=O)C1CCN(S(=O)(=O)c2ccc(C)c(C(=O)NC3CCCCC3)c2)CC1	10	7	-1.2	-7	-9	-0.3	13	1	3	-2
CCc1nc(C)ccc1OCC(=O)NCCCN(C)C	·	·	·	13	11	0.1	2.9	11	-11	-4
C1CCC2(CC1)OCC1(CO2)COC2(CCCCC2)OC1	·	·	·	-15	-5	0.2	3.7	16	2	-3
CC(=O)N1CCN(C(=O)c2ccc3oc(CCCc4ccccc4)nc3c2)CC1	2	14	1.3	-3	4	1.2	5.5	2	-12	-22
Cc1ccc(C)c(OCc2cc(C(=O)N3CCOCC3)no2)c1	-1	3	0.2	-1	-3	0.0	-1.1	4	-4	1
CCc1cccc(N(C(=O)c2csnn2)C(C(=O)NC(C)(C)C)c2ccccn2)c1 (centres undefined)	14	9	1.9	26	-2	0.3	-1.8	-2	1	-21
Cc1ccc(NC(=O)Nc2ccc3oc(C)nc3c2)cc1	·	·	·	20	-6	1.4	-3.7	1	-3	-8
COC(=O)C1CCN(Cc2cc(=O)oc3cc(C)c(Cl)cc23)CC1	9	14	-0.8	-1	0	-1.2	2.3	5	1	-1
COc1ccc(OC)c(NC(=O)Cn2c(CCC(=O)O)ccc2-c2ccccc2)c1	·	·	·	26	-5	-0.3	-3.7	-3	-4	-2
CCOC(=O)Cc1csc(NC(=O)c2c(O)c3c(n(CC(C)C)c2=O)CCCC3)n1	-2	2	-3.7	-6	-8	-0.7	-1.6	-3	1	·
CCOC(=O)C1=C(C)OC(N)=C(C#N)C1c1cccs1 (centres undefined)	5	4	0.5	?	-5	0.1	-5.1	-2	-7	-22
O=C(Nc1nnc(-c2ccncc2)s1)C1CCCO1 (centres undefined)	·	·	·	-1	-6	-0.6	-0.2	-5	0	-26
Cc1occc1C(=O)Nc1nccs1	·	·	·	-15	-8	-11	-7.6	0	-7	3
Cc1ccc(C(=O)N/C(=C\c2cn(S(=O)(=O)N(C)C)c3ccccc23)C(=O)NCCCn2ccnc2)cc1	-6	-13	8.3	8	12	-0.2	3.6	-2	8	-3
CC1=NN(c2ccc(F)cc2)C(=O)C1C(c1cccc(O)c1)c1c(C)[nH]n(-c2ccc(F)cc2)c1=O (centres undefined)	·	·	·	-2	-7	-0.3	7.3	7	-4	-22
CNC(=O)C(=O)NCC1OCCCN1S(=O)(=O)c1ccc2c(c1)OCCO2 (centres undefined)	20	12	1.9	2	-9	-0.3	-3.9	9	-11	-9
Cc1cc(C(=O)CSc2nnc(-c3ccco3)o2)c(C)n1Cc1ccco1	·	·	·	8	-8	-0.1	1.7	-14	-2	-1
Nc1nc(COC(=O)C2CC(=O)N(Cc3ccccc3)C2)nc(Nc2ccccc2)n1 (centres undefined)	-3	-2	-1.8	·	·	0.8	2.1	7	-4	1
Cc1ccccc1OCCNC(=O)/C=C/c1ccc([N+](=O)[O-])cc1	·	·	·	-5	23	0.2	-0.3	-5	-5	-38
O=C(CCNS(=O)(=O)c1ccc(Br)cc1)N1CCCCCCC1	-14	-18	-1.7	·	4	0.3	-0.2	-3	2	-7
Clc1ccccc1-c1nc(/C=N/N2CCOCC2)c2ccccn12	-5	-4	3.6	-4	-13	-0.3	·	18	1	·
COc1ccc(CNC(=O)C2CCC(CNS(=O)(=O)c3cccc4cccnc34)CC2)cc1 (centres undefined)	-3	-9	0.9	-6	13	0.9	-1.1	-12	2	-7
CCN(CC)CCC/C(=N\O)C(O)(c1ccccc1)c1ccccc1	10	4	1.2	-8	-7	-0.7	3.5	18	0	-5
Continuation.
SMILES	rRNA inh HTS	rRNA inh HTS OD600	rRNA inh HTS RFP	Calb FLC	T cruzi inh	A1 inh	LANA-H2B inh	Beta2AR agonist	Beta apoptosis	ALR inh
COCCNC(=O)c1cnn2c(C(F)(F)F)cc(-c3ccc4c(c3)OCO4)nc12	·	·	·	-5	18	0.8	0.5	-4	2	-8
COc1cc(OC)nc(NC(=O)CCl)n1	·	·	·	?	-3	0.5	1.4	-9	5	6
O=C(O)CCc1cccnc1	3	4	-1.3	·	-14	0.2	-5.3	-12	-7	-16
Cc1ccc(-n2nnc3c(SCC(=O)NCC4CCCO4)ncnc32)cc1 (centres undefined)	·	·	·	-11	8	-3.4	2.1	51*	-4	8
CCCCc1ccc(NC(=S)N2CCC(O)CC2)cc1	1	15	2.2	26	-12	1.6	-8.8	2	-9	-2
COC(=O)c1ccc(NC(=O)CSC2=NCCN2)cc1	·	·	·	14	-7	0.2	0.6	14	·	99*
CC(C(=O)N1CCc2ccccc21)N1CCN(S(=O)(=O)c2cccs2)CC1 (centres undefined)	-3	1	0.9	·	·	1.6	1.8	10	1	·
CCOC(=O)c1c(C)[nH]c(C)c1S(=O)(=O)N(C)CC(=O)Nc1ccccc1F	-3	-3	-0.6	-5	-18	1.5	8.6	1	-3	-2
CCCCOc1ccc(C(=O)NNC(=O)c2cnccn2)cc1OC	-10	-45	-8.9	·	·	0.6	4.6	1	30	1
CCc1cc2ccc(OC)cc2nc1SCC(=O)NNC(C)=O	5	8	-3.5	-4	-3	-0.2	-3.9	-8	2	-1
CN(C)C=Nc1ncc2c3ccccc3n(CCN(C)C)c2c1C#N	·	·	·	-5	26	0.0	-9.4	-2	-4	7
CCOC(=O)c1nc(-c2ccccc2)oc1N1CCOCC1	3	0	1.8	34	15	0.5	-6.9	-8	-4	-5
O=C(CN(Cc1ccccc1Cl)C(=O)CNS(=O)(=O)c1ccccc1)NCC1CCCO1 (centres undefined)	0	4	-2.9	4	3	0.3	2.0	-1	-6	·
CCOC(=O)CSc1nnc(Cc2cc(=O)[nH]c(=O)[nH]2)n1-c1ccc(Cl)cc1	·	·	·	-4	-8	-1.0	5.8	2	-4	-7
CCCCn1c(N)c(N(CCOC)C(=O)C2CCCN(C(=O)c3ccc(Cl)cc3)C2)c(=O)[nH]c1=O (centres undefined)	10	3	-1.3	1	-6	1.1	-2.6	-3	4	-11

Compound activity: PubChem, several laboratories

A portion of the library; count on the stated rates, not on these rows.
